Bioassay records: PubChem BioAssay, several laboratories
rRNA inh HTS = reduced GFP signal of wild-type E. coli, primary screen, bacterial rRNA inhibitor project, GFP/RFP fluorescence, OD600, single point; E. coli WT GFP vs humanized-ribosome RFP mutants, 24 h; stronger effect = lower value; DMSO median 0, no signal -100; GFP signal change (wild-type ribosome), % (concentration not given with the values); actives 1.6% (n = 350,000); AID 720706, 2013;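 active = significant combined selectivity score with lowered wild-type GFP, culture density cut under 30%, mutant RFP and density less affected; inactive = any of these conditions unmet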; note: one replicate is shown; some compounds called inactive have numbers as strong as hits
HNF4A DNA FP = change in binding of human HNF4A to DNA, primary screen, biochemical, fluorescence polarization, FITC-DNA; 1 h; activity change, % at 10 µM; actives 0.3% (n = 360,000); in the data active = activity change above about 30%, passing the limit was not always enough;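 note: controls were the assay level and a saturating level of protein; the project sought stronger binding though the title names inhibitors; some compounds called inactive have numbers as strong as hits; positive values seem to mean higher polarization but the record does not say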
Vif TR-FRET = inhibitors of Vif binding to APOBEC3G peptide, primary screen, biochemical, TR-FRET, GST-Vif 1-94, biotin-A3G peptide, dose response retest (AID 1117319) | Virion infectivity factor (Human immunodeficiency virus type 1 group M subtype B (isolate … | inhibition, %; hits with a dose series show IC50 in µM | TR-FRET GST-Vif / biotin-A3G peptide binding; higher % means a stronger effect; test concentration not given here; strong numbers were not always called active | actives 0.57% (n = 260,000);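 active = above the screen mean plus three standard deviations and confirmed in dose response; inconclusive = results disagree or hit not tested in dose response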;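 note: Vif residues 1-94 fused to GST binding biotinylated APOBEC3G peptide 110-148; 0% = full assay without inhibitor and 100% = GST in place of GST-Vif; retest series ran down from 100 µM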
MLL AF4-AF9 inh = inhibitors of AF4 peptide binding to AF9, primary screen, biochemical, AlphaScreen, biotin-AF4 peptide, FLAG-AF9, single point | actives 0.47% (n = 350,000) | inhibition, % at 10 µM;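 active = every replicate reaching a set inhibition limit, whatever the replicate mean, cut at about 25% in these data; inconclusive = mean inhibition reaches that limit but some replicates miss it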;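 note: 0% = plate neutral control median and 100% = total signal loss; the record names both 10 and 1 µM as test concentration; the first replicate is given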
Target sequence (P42568 whole entry, looked up): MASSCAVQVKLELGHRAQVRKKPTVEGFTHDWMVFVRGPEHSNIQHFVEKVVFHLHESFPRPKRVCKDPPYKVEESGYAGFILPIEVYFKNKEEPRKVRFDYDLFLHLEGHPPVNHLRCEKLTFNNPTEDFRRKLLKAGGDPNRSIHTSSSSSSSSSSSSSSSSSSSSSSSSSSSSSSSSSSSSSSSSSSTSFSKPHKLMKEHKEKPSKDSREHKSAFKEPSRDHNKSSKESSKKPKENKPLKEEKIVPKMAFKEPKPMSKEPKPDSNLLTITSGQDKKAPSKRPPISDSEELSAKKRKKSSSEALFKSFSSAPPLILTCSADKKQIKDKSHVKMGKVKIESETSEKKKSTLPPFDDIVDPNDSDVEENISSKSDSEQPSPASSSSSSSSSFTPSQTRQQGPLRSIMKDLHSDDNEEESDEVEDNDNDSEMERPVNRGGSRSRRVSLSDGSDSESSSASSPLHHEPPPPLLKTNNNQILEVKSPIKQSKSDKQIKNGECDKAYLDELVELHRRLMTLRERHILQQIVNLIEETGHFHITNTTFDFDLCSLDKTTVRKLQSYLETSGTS
Ecoli growth = E. coli growth inhibition, primary screen, OD600; Escherichia coli growth, 23 h; stronger effect = lower value; OD600 absorbance (concentration not given with the values); actives 0.21% (n = 330,000); AID 1053175, 2014;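 active = OD600 absorbance below the run mean of sample wells minus 3.6 SD, in any replicate, cut at about 0.56 in these data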;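 note: stock transfer was 300 nL into about 60 µL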
FGF22 binding = binders of human FGF22 protein, primary screen, FGF22 synaptogenesis inhibitor project, biophysical, thermal shift, single point; actives 1.5% (n = 340,000); recombinant FGF22 thermal shift, SYPRO orange fluorescence; percent of sucrose octasulfate shift, DMSO zero; AID 651658, 2012; calls only at 9.99 µM;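 active = melting point raised past a set limit in the mean and every replicate; inconclusive = no clear call; three in four hits are not shown here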
Target sequence (Q9HCT0 whole entry, looked up): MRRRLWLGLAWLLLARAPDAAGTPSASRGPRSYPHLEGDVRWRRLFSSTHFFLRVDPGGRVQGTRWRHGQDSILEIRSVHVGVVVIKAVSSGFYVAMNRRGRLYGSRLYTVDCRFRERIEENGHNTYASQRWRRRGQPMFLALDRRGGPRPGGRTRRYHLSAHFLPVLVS
ALR inh = inhibitors of human ALR sulfhydryl oxidase, primary screen, biochemical, H2O2 detection, HRP-luminol luminescence, single point. FAD-linked sulfhydryl oxidase ALR (Homo sapiens), P55789. actives 3.8% (n = 290,000). purified ALR, DTT oxidation. inhibition, % (no concentration beside the values);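 active = mean and each replicate at 75% or more; inconclusive = only one of the two met; inactive = neither met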;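 note: stock transfer was 7.5 nL into about 7.5 µL; 0% = neutral wells and 100% = wells with inactivated enzyme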
Target sequence (P55789 whole entry, looked up): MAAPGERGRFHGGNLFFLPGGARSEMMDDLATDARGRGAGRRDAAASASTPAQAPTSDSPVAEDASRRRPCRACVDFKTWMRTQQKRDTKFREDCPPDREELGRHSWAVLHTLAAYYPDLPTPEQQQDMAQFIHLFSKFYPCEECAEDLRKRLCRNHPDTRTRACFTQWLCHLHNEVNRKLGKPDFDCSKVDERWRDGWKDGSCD
rRNA inh HTS OD600 = recorded beside rRNA inh HTS, whose call it bears; OD600 change, %; measured here: OD600 growth;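 optical density of the mix in the first replicate; 0 = DMSO median and -100 = no signal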
rRNA inh HTS RFP = recorded beside rRNA inh HTS, whose call it bears; RFP signal change, %; measured here: RFP humanized mutant strains;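 first replicate; 0 = DMSO median and -100 = no signal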
* marks the source's active call; other numbers are inactive results; i = inactive; ? = inconclusive; · = no result given. Only part of the results is shown; count on the stated rates, not on these rows.

entry | Structure | rRNA inh HTS | rRNA inh HTS OD600 | rRNA inh HTS RFP | HNF4A DNA FP | Vif TR-FRET
1 | COCC(=O)Nc1ccc2c(c1)OC[C@H](C)N(C(=O)c1ccccc1)C[C@@H](C)[C@H](OC)CN(C)C2=O | 1 | 4 | -0.9 | · | ·
2 | O=C(O)Cc1sc(-c2ccccc2)nc1-c1cccs1 | -25 | -13 | -6.3 | -2.2 | -3%
3 | CCOc1ccc(CCNC(=O)c2ccc3nc(CC)c(CC)nc3c2)cc1 | 24 | 20 | 9.2 | 5.4 | 2%
4 | CCCCN(CC)CCNC(=O)c1cn(-c2ccc(Cl)cc2)c(=O)c2ccccc12 | 6 | 2 | 1.2 | 1.9 | 20%
5 | C[C@@H]1CN([C@H](C)CO)C(=O)Cc2cc(NC(=O)c3ccncc3)ccc2O[C@H]1CN(C)Cc1ccccc1 | -1 | 6 | 4.5 | · | ·
6 | C=CCn1c(NC)cc(=O)n(C)c1=O | · | · | · | -1.0 | 6%
7 | CCN1CCN(S(=O)(=O)c2ccc(Cl)c(C(=O)N(CCc3ccccc3)Cc3ccccc3)c2)CC1 | · | · | · | -1.7 | ·
8 | C[C@@H]1CN([C@H](C)CO)C(=O)c2cccc(NC(=O)Nc3ccc4c(c3)OCO4)c2O[C@H]1CN(C)C(=O)NC1CCCCC1 | -4 | -5 | -2.4 | · | ·

entry | MLL AF4-AF9 inh | Ecoli growth | FGF22 binding | ALR inh
1 | -2.4 | · | i | ·
2 | 0.8 | 0.69 | i | ·
3 | -4.3 | 0.67 | i | 0
4 | -0.1 | 0.68 | i | -3
5 | -12 | · | i | ·
6 | · | 0.72 | · | -3
7 | 8.7 | · | i | ·
8 | 0.2 | · | i | ·

A second format for part of the listing above:
(7) CCN1CCN(S(=O)(=O)c2ccc(Cl)c(C(=O)N(CCc3ccccc3)Cc3ccccc3)c2)CC1
  rRNA inh HTS: ·
  rRNA inh HTS OD600: ·
  rRNA inh HTS RFP: ·
  HNF4A DNA FP: -1.7
  Vif TR-FRET: ·
  MLL AF4-AF9 inh: 8.7
  Ecoli growth: ·
  FGF22 binding: i
  ALR inh: ·
(2) O=C(O)Cc1sc(-c2ccccc2)nc1-c1cccs1
  rRNA inh HTS: -25
  rRNA inh HTS OD600: -13
  rRNA inh HTS RFP: -6.3
  HNF4A DNA FP: -2.2
  Vif TR-FRET: -3%
  MLL AF4-AF9 inh: 0.8
  Ecoli growth: 0.69
  FGF22 binding: i
  ALR inh: ·
(8) C[C@@H]1CN([C@H](C)CO)C(=O)c2cccc(NC(=O)Nc3ccc4c(c3)OCO4)c2O[C@H]1CN(C)C(=O)NC1CCCCC1
  rRNA inh HTS: -4
  rRNA inh HTS OD600: -5
  rRNA inh HTS RFP: -2.4
  HNF4A DNA FP: ·
  Vif TR-FRET: ·
  MLL AF4-AF9 inh: 0.2
  Ecoli growth: ·
  FGF22 binding: i
  ALR inh: ·
(5) C[C@@H]1CN([C@H](C)CO)C(=O)Cc2cc(NC(=O)c3ccncc3)ccc2O[C@H]1CN(C)Cc1ccccc1
  rRNA inh HTS: -1
  rRNA inh HTS OD600: 6
  rRNA inh HTS RFP: 4.5
  HNF4A DNA FP: ·
  Vif TR-FRET: ·
  MLL AF4-AF9 inh: -12
  Ecoli growth: ·
  FGF22 binding: i
  ALR inh: ·

Next part
entry | Structure | rRNA inh HTS | rRNA inh HTS OD600 | rRNA inh HTS RFP | HNF4A DNA FP | Vif TR-FRET
9 | O=C(NCCOc1ccccc1F)c1cc(F)c(F)cc1Cl | · | · | · | 1.7 | -7%
10 | CCNC(=O)CN(CCc1ccccc1)S(=O)(=O)c1ccc(OC)cc1 | · | · | · | -2.1 | 5%
11 | CCC1S/C(=N/N=C/c2ccco2)N(c2ccc(F)cc2)C1=O (centres undefined) | 17 | 7 | 1.3 | -0.6 | 13%
12 | COc1cccc(CNC(=O)[C@H]2CCCN2C(=O)[C@H]2CCCN2C(=O)c2cccc(Cl)c2)c1 | 18 | 12 | 2.8 | · | ·
13 | COc1ccc(C(=O)N(Cc2cccs2)C2CCS(=O)(=O)C2)cc1 (centres undefined) | 3 | 8 | 1.5 | -1.0 | ·
14 | Clc1cccc(CN2CCCCCC2)c1 | 2 | 2 | -1.4 | 0.3 | -1%
15 | CSc1nc2c(c(=O)[nH]c(=O)n2C)n1Cc1ccc(Cl)cc1 | 9 | 5 | 2.4 | -1.0 | -8%
16 | CCOC(=O)CSc1nc2c(c(=O)[nH]c(=O)n2C)n1CCCc1ccccc1 | · | · | · | 0.9 | 11%

entry | MLL AF4-AF9 inh | Ecoli growth | FGF22 binding | ALR inh
9 | 1.1 | 0.7 | i | -9
10 | · | 0.68 | · | -14
11 | -1.1 | · | i | -1
12 | 2.5 | · | i | ·
13 | -0.9 | 0.62 | i | -1
14 | -13 | 0.69 | i | 0
15 | 3.7 | 0.68 | i | -6
16 | · | 0.74 | · | -1

Three entries out of the list, ordered by count of non-hydrogen atoms, smallest number first.
entry | Structure | rRNA inh HTS | rRNA inh HTS OD600 | rRNA inh HTS RFP | HNF4A DNA FP | Vif TR-FRET
9 | O=C(NCCOc1ccccc1F)c1cc(F)c(F)cc1Cl | · | · | · | 1.7 | -7%
13 | COc1ccc(C(=O)N(Cc2cccs2)C2CCS(=O)(=O)C2)cc1 (centres undefined) | 3 | 8 | 1.5 | -1.0 | ·
7 | CCN1CCN(S(=O)(=O)c2ccc(Cl)c(C(=O)N(CCc3ccccc3)Cc3ccccc3)c2)CC1 | · | · | · | -1.7 | ·

entry | MLL AF4-AF9 inh | Ecoli growth | FGF22 binding | ALR inh
9 | 1.1 | 0.7 | i | -9
13 | -0.9 | 0.62 | i | -1
7 | 8.7 | · | i | ·

Other structures follow:
entry | Structure | rRNA inh HTS | rRNA inh HTS OD600 | rRNA inh HTS RFP | HNF4A DNA FP | Vif TR-FRET
17 | Cc1c(C(=O)N2CCN(C)CC2)oc2c1C(=O)CC(C)(C)C2 | 12 | 8 | -7.7 | 4.3 | 1%
18 | CN(C)C(=O)c1ccc(-c2ccc3c(c2)[C@@H]2[C@@H](CCN2C(=O)C2CC2)[C@@H](CO)N3C)cc1 | -3 | 3 | -3.6 | · | ·
19 | O=C(C[C@H]1C[C@@H]2c3cc(NC(=O)NC4CCCC4)ccc3O[C@@H]2[C@H](CO)O1)NCc1ccccc1 | 3 | 2 | -1.3 | · | ·
20 | CCOC(=O)c1ccc(NC(=O)c2ncn3c2C(=O)N[C@H](C)C3)cc1 | 11 | 7 | -0.8 | 0.7 | -1%
21 | CCCNC(=O)N1C[C@H](C)[C@H](OC)CN(C)C(=O)c2cc(NC(=O)CC)ccc2OC[C@H]1C | 3 | -1 | -1.9 | · | ·
22 | Cc1ccc2ccc(S(=O)(=O)n3nc(C)cc3C)cc2c1 | 1 | 0 | -0.2 | 2.2 | 2%
23 | CCC(Sc1nnnn1C)C(=O)Nc1ccc(C(C)=O)cc1 (centres undefined) | · | · | · | -2.6 | 3%
24 | CC(NC(=S)NCCCN1CCOCC1)C1CC2CCC1C2 (centres undefined) | -19 | -36 | -2.6 | -0.1 | 26%

entry | MLL AF4-AF9 inh | Ecoli growth | FGF22 binding | ALR inh
17 | 1.2 | 0.71 | i | -1
18 | -16 | · | i | ·
19 | -0.2 | · | i | ·
20 | -2.2 | · | i | ·
21 | -1.0 | · | i | ·
22 | -12 | 0.65 | i | -12
23 | · | 0.75 | · | 4
24 | 1.1 | 0.72 | i | ·

Next part.
entry | Structure | rRNA inh HTS | rRNA inh HTS OD600 | rRNA inh HTS RFP | HNF4A DNA FP | Vif TR-FRET
25 | CCc1csc(N2[C@@H](C#N)[C@H](c3ccc(C#Cc4ccc(F)cc4)cc3)[C@@H]2CO)n1 | 7 | -19 | 0.7 | · | ·
26 | CCOc1ccccc1NC(=O)CCCNC(=O)c1ccc(Cl)cc1 | -2 | -11 | 0.9 | -6.6 | ·
27 | S=C(NCCc1ccccc1)N1CCn2cccc2C1c1cccnc1 (centres undefined) | -6 | 3 | 6.5 | 1.1 | ?
28 | NC(=O)CC(NC(=O)c1ccccc1)c1ccc(NCCN2CCCCC2)c([N+](=O)[O-])c1 (centres undefined) | -1 | 14 | -0.2 | 3.2 | ·
29 | CCCNC(=O)Nc1ccc2c(c1)OC[C@H](C)N(Cc1ccccc1)C[C@H](C)[C@H](OC)CN(C)C2=O | -1 | -2 | -2.4 | · | ·
30 | CNC(=O)c1c(Cl)cnn1-c1ccc(C)cc1 | 16 | 27 | 3.1 | 4.2 | 7%
31 | Oc1c(Cl)cc(Oc2cc(Cl)c(O)c(CN3CCOCC3)c2)cc1CN1CCOCC1 | 10 | -12 | 1.3 | -2.1 | -4%
32 | CCCCNc1nc2c(c(=O)n(C)c(=O)n2C)n1Cc1cccc(OC)c1 | · | · | · | 7.2 | 9%
33 | CN1C2C(Br)CCCCN2c2ccc(F)cc2S1(=O)=O (centres undefined) | 0 | 5 | -1.9 | 1.3 | ·
34 | CCC(c1nnnn1Cc1cccs1)N1CCN(C2CCCC2)CC1 (centres undefined) | · | · | · | -5.0 | 4%

entry | MLL AF4-AF9 inh | Ecoli growth | FGF22 binding | ALR inh
25 | -1.7 | · | i | ·
26 | 1.3 | 0.67 | i | ·
27 | 5.7 | 0.7 | i | 1
28 | -2.5 | 0.71 | i | 1
29 | 0.3 | · | i | ·
30 | -1.1 | 0.69 | i | -3
31 | 12 | 0.66 | i | ·
32 | · | 0.71 | · | 10
33 | -1.2 | 0.7 | i | -1
34 | · | 0.73 | · | 1
